Source: PubChem
VDR inh: vitamin D3 receptor (human) inhibition. P11473. VDR-SRC2-3 peptide fluorescence polarization, 2 h. Potency, µM, for the others: max response, negative = inhibition, most hits filed as inhibitors. 400,000 tested, 0.93% active; active = well fitted inhibition curve with a large enough effect; inconclusive = small, poorly fitted or top-dose-only effect, or another doubt; inactive = no such curve, though single readings can be large or run the other way; note: series mostly up to about 120 µM
Target sequence (P11473 whole entry, looked up): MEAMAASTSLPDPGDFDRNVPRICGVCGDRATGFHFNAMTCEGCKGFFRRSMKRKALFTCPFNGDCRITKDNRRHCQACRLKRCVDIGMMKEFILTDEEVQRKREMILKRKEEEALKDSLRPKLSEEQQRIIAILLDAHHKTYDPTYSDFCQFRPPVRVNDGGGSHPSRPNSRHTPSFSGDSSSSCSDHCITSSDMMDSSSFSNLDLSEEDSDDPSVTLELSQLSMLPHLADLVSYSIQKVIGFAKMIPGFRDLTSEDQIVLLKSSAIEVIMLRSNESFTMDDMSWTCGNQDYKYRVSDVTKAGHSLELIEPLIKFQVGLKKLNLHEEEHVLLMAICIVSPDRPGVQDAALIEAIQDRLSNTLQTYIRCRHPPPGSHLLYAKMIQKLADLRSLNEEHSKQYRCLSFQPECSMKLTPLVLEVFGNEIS
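VDR–SRC2-3 interaction, FP format. Cmpds 23 nl via pintool, brief spin, 2 h ambient incubation.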
Active calls of the source: *; ? = inconclusive; & = joins results of further samples. % is set by controls: 0 for no effect and ±100 for the full control effect; potency is the fitted concentration of half-maximal effect. Some of the compounds tested; the hit share may differ from the screen's.

Start of the listing, in advance:
SMILES | VDR inh
COCCOC(=O)C1=C(C)Nc2ncnn2C1c1ccc(F)cc1 (stereo unspecified) | 3%
Cc1ccccc1NC1=C(Cl)C(=O)OC1OC(=O)c1ccco1 (stereo unspecified) | -13%
CC1SC(c2ccccc2Cl)NC1=O (stereo unspecified) | 0%
COc1cccc(CNc2nc(Cl)nc3nc[nH]c23)c1 | 9%&-17%
CCOc1ccc(-n2c(SCC(N)=O)nnc2-c2ccco2)cc1 | ?
CCOc1ccccc1CN1CCCC(C(=O)c2ccc(OC)c(OC)c2)C1 (stereo unspecified) | -4%
O=C(O)C1CCC(=O)N1C1CCCC1 (stereo unspecified) | -12%
COc1ccc(/C=C2\Sc3ccc(C(=O)NCCN4CCCCCC4)cc3N(C)C2=O)cc1 | -12%
O=C1CN(C(=O)c2ccc(Br)o2)C(c2ccccc2)c2cc(F)ccc2N1 (stereo unspecified) | -22%
COc1ccc(Cl)cc1C(=O)NNC(=O)c1nc2nc(C)cc(C)n2n1 | 1%
COc1ccc(NC(=O)Nc2ccc(N(C)C)cc2)cc1 | 3%
Cc1onc(-c2c(F)cccc2Cl)c1C(=O)N1CCN(c2ncc(Br)cn2)CC1 | -14%
Cc1ccc(CNC(=O)CCC(=O)Nc2nnc(C(C)C)s2)cc1 | 17%
O=C(Cc1ccc(Br)cc1)Nc1cccc(S(=O)(=O)N2CCOCC2)c1 | 6%
Cc1ccc(NC(=O)COc2coc(CN3CCN(Cc4ccccc4)CC3)cc2=O)cc1 | ?
CCOC(=O)Cc1c(C)nc2c(-c3ccc(Cl)cc3)c[nH]n2c1=O | -9%
COc1ccc(N(C(=O)Cn2nnc(-c3ccc(Cl)cc3)n2)C(C(=O)NCC2CCCO2)c2ccncc2)cc1 (stereo unspecified) | -2%
COC(=O)[C@@]12CCCCN1[C@H](c1ccc(-c3cccc(Cl)c3)cc1)[C@@H]1C(=O)N(C)C(=O)[C@@H]12 | -18%

The list itself, from the start:
SMILES | VDR inh
COCCOC(=O)C1=C(C)Nc2ncnn2C1c1ccc(F)cc1 (stereo unspecified) | 3%
Cc1ccccc1NC1=C(Cl)C(=O)OC1OC(=O)c1ccco1 (stereo unspecified) | -13%
CC1SC(c2ccccc2Cl)NC1=O (stereo unspecified) | 0%
COc1cccc(CNc2nc(Cl)nc3nc[nH]c23)c1 | 9%&-17%
CCOc1ccc(-n2c(SCC(N)=O)nnc2-c2ccco2)cc1 | ?
CCOc1ccccc1CN1CCCC(C(=O)c2ccc(OC)c(OC)c2)C1 (stereo unspecified) | -4%
O=C(O)C1CCC(=O)N1C1CCCC1 (stereo unspecified) | -12%
COc1ccc(/C=C2\Sc3ccc(C(=O)NCCN4CCCCCC4)cc3N(C)C2=O)cc1 | -12%
O=C1CN(C(=O)c2ccc(Br)o2)C(c2ccccc2)c2cc(F)ccc2N1 (stereo unspecified) | -22%
COc1ccc(Cl)cc1C(=O)NNC(=O)c1nc2nc(C)cc(C)n2n1 | 1%
COc1ccc(NC(=O)Nc2ccc(N(C)C)cc2)cc1 | 3%
Cc1onc(-c2c(F)cccc2Cl)c1C(=O)N1CCN(c2ncc(Br)cn2)CC1 | -14%
Cc1ccc(CNC(=O)CCC(=O)Nc2nnc(C(C)C)s2)cc1 | 17%
O=C(Cc1ccc(Br)cc1)Nc1cccc(S(=O)(=O)N2CCOCC2)c1 | 6%
Cc1ccc(NC(=O)COc2coc(CN3CCN(Cc4ccccc4)CC3)cc2=O)cc1 | ?
CCOC(=O)Cc1c(C)nc2c(-c3ccc(Cl)cc3)c[nH]n2c1=O | -9%
COc1ccc(N(C(=O)Cn2nnc(-c3ccc(Cl)cc3)n2)C(C(=O)NCC2CCCO2)c2ccncc2)cc1 (stereo unspecified) | -2%
COC(=O)[C@@]12CCCCN1[C@H](c1ccc(-c3cccc(Cl)c3)cc1)[C@@H]1C(=O)N(C)C(=O)[C@@H]12 | -18%
CCC(=O)Nc1cccc(C(=O)/C=C/c2cccs2)c1 | -25%
Cc1ccc(OCCC(=O)NNC(=O)c2nn(C)c(=O)c3ccccc23)cc1 | 5%
COC(=O)c1ccccc1S(=O)(=O)N1Cc2cc([N+](=O)[O-])ccc2Oc2ccccc21 | 9%
Cc1occc1C(=O)NNC(=S)NCc1ccc(Cl)cc1 | 2%
Cc1nnc(NC(=O)CCC(=O)N2CCC(C)CC2)s1 | 6%
N#C/C(=C/c1ccc(OCc2ccc(C(=O)O)cc2)c(Br)c1)c1cccc(F)c1 | 2%
CN1CCN(C(=O)CN(C)S(=O)(=O)c2ccc(F)cc2)CC1 | 6%
COc1cc(SC)ccc1C(=O)OCC(=O)N1CCCC1 | -4%
Cc1ccc(NC(=O)Cc2nnc(SCC(=O)Nc3ccccc3)n2C)cc1 | ?
COc1ccc(-c2ncncc2-c2ccc(Cl)cc2)c(O)c1 | 9%
O=C(CC1C(=O)NCCN1CC1CCCCC1)NCc1ccc(Cl)cc1 (stereo unspecified) | -11%
CC(C)CC(=O)N1CCN(S(=O)(=O)c2ccccc2)CC1 | -10%
O=C(CSc1nnc(-c2ccc(F)cc2)c2ccccc12)Nc1ccccc1 | -8%
CC1CC(C)(C)NCCNC(C)CC(C)(C)NCCN1 (stereo unspecified) | 4%
COC(=O)c1cc2sc(Cl)cc2n1CC(=O)Nc1ccc(OC)c(OC)c1OC | 17%
COc1ccc2nc(C)cc(SCC(=O)N/N=C/c3ccc(O)c(O)c3)c2c1 | 16%
CCOC(=O)c1ccccc1NC(=O)CSc1nc2ccncc2[nH]1 | -2%&15%
Cn1c(=O)c2c(nc(CN3CCN(c4ccccc4F)CC3)n2CCCc2ccccc2)n(C)c1=O | 9%
O=C(NCCCN1CCCC1=O)c1cc2c(s1)CCCCC2 | -1%
COc1ccc(NC(=O)CSCC(=O)N(C)CCOc2ccc(Cl)cc2)cc1 | 3%
FC(F)(F)c1cccc(NC(=S)NCC(c2cccnc2)N2CCOCC2)c1 (stereo unspecified) | -15%
CCOC(=O)N1CCN(C(=O)c2cc(COc3cccc(C(C)=O)c3)on2)CC1 | -1%
O=C(CC(c1ccccc1)c1ccccc1)N1CCN(c2ccccn2)CC1 | -15%
COc1ccc(C(O)(C2CCCCC2)C(CN2CCOCC2)c2ccccc2)cc1 (stereo unspecified) | 15%
O=C(N/N=C/c1cccc([N+](=O)[O-])c1)c1cccc2cc[nH]c12 | -15%
CS(=O)(=O)c1ccc(C(=O)N2CCN(Cc3ccccc3)CC2)cc1 | 7%
COC(=O)C1=C(N)Oc2cc(C)n(CC3CCCO3)c(=O)c2C1c1ccccc1 (stereo unspecified) | -11%
CCCCn1c(NC(=S)Nc2ccccc2)nc2ccccc21 | 0%
O=C(NC(=S)Nc1ccc(Cc2ccncc2)cc1)c1ccccc1Cl | 8%
C[C@@H](CN1CCC(Cc2ccccc2)CC1)[C@@H](O)c1ccc(O)cc1 | 14%&-21%&6%
Cc1ccc(N(CC(=O)NCC2CCCO2)S(C)(=O)=O)cc1Cl (stereo unspecified) | -9%
Cc1nn(Cc2ccccc2)c(C)c1C(=O)N1CCN(CC(=O)Nc2ccc(F)cc2)CC1 | -14%
CCOC(=O)CC1C(=O)NCCN1S(=O)(=O)c1ccc(C)cc1 (stereo unspecified) | 10%
Nc1c(S(=O)(=O)c2cccc(Cl)c2)c2nc3ccccc3nc2n1CCN1CCOCC1 | 6%
CCOC(=O)c1ccc(N2C(=O)CC(C3CCCO3)C2=O)cc1 (stereo unspecified) | 8%
FC(F)Oc1ccc(-c2csc(=Nc3cccnc3)n2CC2CCCO2)cc1 (stereo unspecified) | -14%
CCc1cc(=O)oc2c3c(c(Cl)cc12)OCN(Cc1cccc(OC)c1)C3 | -4%
CCC1CCc2c(sc(NC(=O)C3c4ccccc4Oc4ccccc43)c2C(=O)OC)C1 (stereo unspecified) | -21%
Cc1nc(C)c(C(=O)N2CCCC(C(=O)c3ccc(Cl)cc3C)C2)s1 (stereo unspecified) | 7%
Cc1cc(C)c(S(=O)(=O)NCC(c2ccc3c(c2)OCO3)N2CCOCC2)c(C)c1 (stereo unspecified) | -23%
O=C(COC(=O)CCC1CCCC1)Nc1cccc(S(=O)(=O)N2CCOCC2)c1 | -4%
C/C(=N\N=C1\NC(=O)CS1)c1cccs1 | -17%

Further entries
SMILES | VDR inh
Cc1ccc(S(=O)(=O)N2CCCCC2)cc1NC(=O)CSc1ncn[nH]1 | -6%
CCCN1C2CCCC1CC(NC(=O)c1ccccc1Br)C2 (stereo unspecified) | -25%
O=C(Nc1nccs1)c1cn2ccccc2n1 | -3%
Cc1nc2ccccc2n1C(=O)c1ccccc1[N+](=O)[O-] | 9%
Cc1cc(OCc2cccc(S(=O)(=O)N3CCOCC3)c2)ccc1Cl | 1%
CS(=O)(=O)c1ccc(Cl)c(NC(=O)COC(=O)CNC(=O)c2sc3ccccc3c2Cl)c1 | -4%
Cn1cc(C(=O)NCN2CCCCC2)c2ccccc21 | -2%
O=C(CCSc1ccccn1)c1ccccc1 | ?
O=C(O)CNc1nc(-c2ccccc2)nc2ccccc12 | 17%
Cc1oc(-c2ccccc2Cl)nc1Cn1cccc1C1=NC(c2ccccc2)CO1 (stereo unspecified) | 6%
COC(=O)CC(=O)N1CCN(c2ccc(Cl)c(Cl)c2)CC1 | 9%
CC(=O)Nc1ccc(NC(=O)c2sc(-c3ccccc3)nc2C)cc1 | 16%
CCCNC(=O)c1ccc(OC)cc1OC | -12%
COc1ccc(C(=O)OCCOc2cccc(Cl)c2)cc1S(=O)(=O)N1CCOCC1 | -4%
CNC(=O)c1sc(-c2cccs2)nc1C | -10%
CCC(C)c1ccc(NC(=O)c2cnn3c(C(F)F)cc(C)nc23)cc1 (stereo unspecified) | 16%
COc1cccc(Nc2ncccc2C(=O)O)c1 | 3%
COc1ccc(/C=C\C(=O)NC2CC(=O)N(c3ccccc3)C2)cc1OC (stereo unspecified) | -3%
CCOC(=O)N/N=C/C(Cl)=C/c1ccccc1 | -16%
Oc1ccc(Cl)cc1CNc1cccc2cccnc12 | -6%
CCOCC(=O)Nc1ccc(S(=O)(=O)N2CCC(c3nc4ccccc4[nH]3)CC2)cc1 | -13%
COc1cccc(-c2cc(=O)c3ccc(OC)cc3o2)c1 | 18%
CCOc1ccccc1NC(=O)c1cccc(S(=O)(=O)N(Cc2ccccc2)c2ccccc2OC)c1 | -13%
CCOC(=O)c1cn(Cc2cccc(Cl)c2)nn1 | -13%
O=C(CN1CCOCC1)Nc1ncc(Cc2ccccc2Cl)s1 | -3%
O=C(CSCc1c(F)cccc1Cl)Nc1ccccc1C(=O)N1CCOCC1 | 0%
CCOC(=O)c1c(C)[nH]c(C)c1S(=O)(=O)NCC(=O)Nc1cccc(SC)c1 | 7%
COC(=O)c1ccc2[nH]ccc2c1 | -8%
CCc1ccccc1NC(=O)CSc1nc2ccccc2nc1N1CCOCC1 | 10%
COc1ccc(Cl)cc1NC(=O)c1ocnc1C | 1%
O=C(NC[C@H](O)c1ccccc1)c1ccccc1 | 2%
CC(=O)c1ccc(-c2ccc(C(=O)N3CCN(c4ccc(F)cc4)CC3)o2)cc1 | 17%
Cc1cccc(NC(=O)c2ccc(S(=O)(=O)N3CCCC3)cc2)c1C | -7%
CCNC(=O)CC1C(=O)N(c2ccc(F)cc2)C(=O)N1Cc1cccs1 (stereo unspecified) | 6%
O=C(Nc1ccc2c(c1)OCCO2)C(=S)NCc1ccccc1 | 9%
O=C(COc1ccccc1Cl)N1CCN(c2ccc([N+](=O)[O-])c(N3CCOCC3)c2)CC1 | 9%
Cc1cccc(C(=O)NN/C=C/C(=O)c2ccccc2)c1 | -11%
Cc1ccc(CN(C)C(=O)c2ccc(S(=O)(=O)N(C)c3ccccc3)cc2)o1 | -24%
O=C(CCCN1C(=O)[C@H]2CC=CC[C@H]2C1=O)NCc1nc(-c2ccccc2)no1 | 2%
CN(Cc1cccnc1)C(=O)c1cc(COc2ccc3c(c2)CCCC3)on1 | -18%
CCN(CC)CCOc1cccc(C(C)C)c1 | 6%
O=C(CSc1nncs1)N1c2ccccc2Sc2ccccc21 | -5%
C#CCSc1ncc(S(=O)(=O)c2ccccc2)c(=O)[nH]1 | -10%
CS(=O)(=O)N1CCc2cc(C(=O)Nc3ccccc3)ccc21 | -10%
O=C(O)/C=C/C(=O)NC1CC1 | 10%
Cc1ccc2c(c1)C(=O)C(=O)N2Cc1ccc(OC(C)C)cc1 | ?
CN(C)CC(O)COc1cc2ccccc2cc1C(=O)N1CCCCC1 (stereo unspecified) | -15%
O=S(=O)(c1ccc(Cl)nc1)N1CCCC1 | -8%
C=CCC(=O)NC1CCCc2c1cnn2-c1cc(F)cc(F)c1 (stereo unspecified) | 28%
Cc1ccc(O)c(C(=O)C=Cc2ccccc2)c1 | ?
O=C(Cc1ccc(S(=O)(=O)N2CCOCC2)s1)Nc1cc(Cl)ccc1Cl | 5%
O=c1c2c3c(sc2n(CCN2CCCC2)c(=O)n1Cc1ccco1)CCCCC3 | -15%
CC(=O)Nc1cccc(NC(=O)c2ccc3[nH]c(C)c(C)c3c2)c1 | -6%
C=CCNC(=O)O/N=C/c1csc([N+](=O)[O-])c1 | -12%
O=C(c1cc(C2CC2)on1)N1CCOCC1 | 11%
CCOC(=O)[C@H]1[C@H]2COc3ccc(Cl)cc3[C@@H]2N2C(=O)[C@H](C)NC(=O)[C@@]12C | -14%
NC(=O)NC(CC(=O)NNC(=O)c1cccs1)c1ccc(Cl)cc1 (stereo unspecified) | -8%
O=C(O)CC(CNS(=O)(=O)c1ccccc1)c1ccccc1 (stereo unspecified) | -8%
CCN1CCN(C(=O)c2c(-c3c(F)cccc3Cl)noc2C)CC1 | -12%
CC(=O)C[C@@H](O)CC(=O)[C@H]1OC(=O)[C@@H](C)C/C=C\Cc2ccccc21 | -7%

More records follow:
SMILES | VDR inh
O=C(O)c1cc(S(=O)(=O)NCCN2CCNC2=O)ccc1O | -6%
COc1ccc(N2C(=O)CS(=O)(=O)C23C(=O)N(Cc2cccc(F)c2)c2ccccc23)cc1OC (stereo unspecified) | -6%
CCCN1CCC(NC(=O)CCc2nnc(-c3ccccc3)o2)CC1 | -2%
CCCc1nnc(NC(=O)C2CC(=O)N(C3CCCC3)C2)s1 (stereo unspecified) | -21%
COc1ccccc1C(=O)Nc1ccc(OCC(=O)N2CC(C)CC(C)C2)cc1 (stereo unspecified) | -7%
c1coc(Cn2c(SCc3nc4ccccc4[nH]3)nnc2-c2cnccn2)c1 | -16%
